# Source: PubChem BioAssay
# PKD1 inh: PKD1 (human) kinase inhibition; inhibition, %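 (about 10 µM by stock and volumes)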; PKD1 kinase fluorescence polarization assay; Q15139; 0.056% of 200,000 active;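 active means inhibition of 50% or more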;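 further: controls were vehicle for no effect and a reference inhibitor for full effect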
# Target sequence (Q15139 whole entry, looked up): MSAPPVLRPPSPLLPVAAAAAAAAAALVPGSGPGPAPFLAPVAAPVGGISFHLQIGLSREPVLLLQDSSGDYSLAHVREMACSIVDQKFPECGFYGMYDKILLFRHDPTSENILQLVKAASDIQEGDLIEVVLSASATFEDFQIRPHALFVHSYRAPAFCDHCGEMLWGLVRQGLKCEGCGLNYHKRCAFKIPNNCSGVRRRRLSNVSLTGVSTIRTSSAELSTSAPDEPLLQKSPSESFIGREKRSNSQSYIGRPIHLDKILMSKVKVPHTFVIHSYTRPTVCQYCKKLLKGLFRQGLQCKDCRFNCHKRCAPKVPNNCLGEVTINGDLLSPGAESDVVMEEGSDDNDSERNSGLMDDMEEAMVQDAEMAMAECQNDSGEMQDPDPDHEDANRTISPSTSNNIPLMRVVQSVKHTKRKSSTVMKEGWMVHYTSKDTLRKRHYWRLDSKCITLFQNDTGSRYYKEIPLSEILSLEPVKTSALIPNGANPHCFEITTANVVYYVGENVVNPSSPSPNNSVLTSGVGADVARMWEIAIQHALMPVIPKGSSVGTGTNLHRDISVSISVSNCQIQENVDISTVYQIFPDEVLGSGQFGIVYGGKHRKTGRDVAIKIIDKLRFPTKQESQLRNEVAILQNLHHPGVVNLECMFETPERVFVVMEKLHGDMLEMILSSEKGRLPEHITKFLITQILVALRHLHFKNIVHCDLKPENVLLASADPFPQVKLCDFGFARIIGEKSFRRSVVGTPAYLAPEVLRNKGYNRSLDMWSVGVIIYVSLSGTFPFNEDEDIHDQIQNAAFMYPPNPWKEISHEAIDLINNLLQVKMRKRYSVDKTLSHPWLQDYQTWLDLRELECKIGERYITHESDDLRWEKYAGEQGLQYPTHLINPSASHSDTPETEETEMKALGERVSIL
# RGS16-Gao HTS: modulates binding between human RGS16 and Galphao | O15492+P09471 | bead-based flow cytometry RGS16-Galphao binding, fluorescence; actives lie on both sides | 0.38% of 220,000 active | binding response (% of control), % at 10 µM;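 active means below 25% or above 175%, edge rows of some plates excepted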;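 further: Galphao activated by GDP with aluminum fluoride before binding; 100% = wells without compound and 0% = beads without RGS; some results beyond the cut were filed as inactive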
# GALR2 ag: agonists of human galanin receptor 2 (GALR2) | GALR2-expressing cells, agonist activation read-out | activation, %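 (tested at 5 µM)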 | 0.48% of 140,000 active | AID 803;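 active means above mean plus 3 SD of all compounds, about 5% in these data, not always enough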;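 further: 0% = vehicle buffer wells and 100% = reference agonist at full effect; tested in CHO reporter cells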
# INS promoter inh: TRM-6 insulin promoter activity inhibition | inhibition, % at 2 µM | AID 1273 | 0.9% of 130,000 active | TRM-6 cells (human fetal islet line), insulin promoter-eGFP reporter, imaging; reporter expression induced with tamoxifen;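 active means inhibition above the mean plus 3 SD, with well images judged a real hit on visual review, cut at about 60% in these data, passing the limit was not always enough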
# HSV replic up: increases HSV replication in cells. HSV replication augmentation in cells, fold increase. maximum fold increase. 0.005% of 220,000 active. AID 1956;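 active means peak rise of 1.5-fold or more in the series; tested in PC3 cells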;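 further: first round at 10 µM; read as green reporter fluorescence; hits show the peak of a series up to 25 µM; 1 = signal of infected wells without compound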
# INS promoter inh cell count: second read-out of INS promoter inh, no call of its own (marks repeat the call); normalized cell count, %; measured here: cell count, toxicity; reference of the scale not given here;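 cells exposed to compound for 48 h; stained nuclei by imaging scaled within each plate; lower means fewer cells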
# HSV replic up primary fold: recorded beside HSV replic up, whose call it bears; fold increase; compound at 10 µM; measured here: primary screen fold increase 10 uM; tested in PC3 cells;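 GFP signal in the first replicate; 1 = infected wells without compound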
# * marks the source's active call; other numbers are inactive results; i = inactive; nt = not tested or not shown; [ ] = remark or other dose.
structure	PKD1 inh	RGS16-Gao HTS	INS promoter inh cell count	INS promoter inh	HSV replic up	GALR2 ag	HSV replic up primary fold
Cc1cccc(NCc2cc(Cl)cc(Cl)c2O)n1	4	323*[activator]	108	72	nt	-0.9	nt
CN(C)c1ccc(NC(=O)c2sc(SCC(=O)Nc3ccc(Br)cc3)nc2N)cc1	-1	102	101	-29	i	0.0	1
N#CC1=C(S)N(c2ccccc2)C(c2cccs2)NC1=O (stereo not drawn)	8	108	64	46	i	0.3	1
COc1ccc(NC(=S)NCCc2c[nH]c3ccccc23)c(OC)c1	-4	104	88	-14	i	-1.6	0.96
Cn1c(SCc2ccccn2)nnc1-c1ccccc1	-1	99	nt	nt	i	nt	0.87
O=C(CSc1nc(CCC2CCCC2)nc2ccccc12)NCc1ccc2c(c1)OCO2	-11	110	116	22	i	0.8	0.84
CCCOc1ccc(C(=O)NCC(c2cccs2)N(C)C)cc1OC (stereo not drawn)	-6	100	88	-74	i	-0.7	1
CCOC(=O)CN(C(=O)COc1nc(-c2ccccc2)cc(C)c1C#N)c1ccc(F)cc1	nt	103	nt	nt	i	nt	0.82
COc1cc(N)c(Cl)cc1Cl	-6	108	101	-15	nt	nt	nt
Cc1ccc(Nc2nc(-c3sc(NC(=O)c4cccc(Cl)c4)nc3C)cs2)cc1	-2	97	107	24	i	-3.2	0.92
COCCn1c(=O)[nH]c2cc(C(=O)Nc3cccc(F)c3)ccc2c1=O	-2	100	nt	nt	i	nt	0.93
COc1cccc(CN2CCN(Cc3cccc4nonc34)CC2CCO)c1 (stereo not drawn)	2	101	nt	nt	i	nt	1.3
FC(F)(F)c1ccc2c(c1)N1CCCC1CN2 (stereo not drawn)	0	103	nt	nt	nt	nt	nt
CCc1cccc(C)c1NC(=O)CN1C(=O)NC(Cc2ccccc2)C1=O (stereo not drawn)	2	102	nt	nt	i	nt	1
COc1ccc(C(c2c(NC(C)=O)sc3c2CCCC3)N2CCN(CCO)CC2)cc1OC (stereo not drawn)	-13	102	nt	nt	i	nt	0.87

# For reference, 5 of the compounds above.
structure	PKD1 inh	RGS16-Gao HTS	INS promoter inh cell count	INS promoter inh	HSV replic up	GALR2 ag	HSV replic up primary fold
N#CC1=C(S)N(c2ccccc2)C(c2cccs2)NC1=O (stereo not drawn)	8	108	64	46	i	0.3	1
COc1ccc(NC(=S)NCCc2c[nH]c3ccccc23)c(OC)c1	-4	104	88	-14	i	-1.6	0.96
Cn1c(SCc2ccccn2)nnc1-c1ccccc1	-1	99	nt	nt	i	nt	0.87
O=C(CSc1nc(CCC2CCCC2)nc2ccccc12)NCc1ccc2c(c1)OCO2	-11	110	116	22	i	0.8	0.84
CCCOc1ccc(C(=O)NCC(c2cccs2)N(C)C)cc1OC (stereo not drawn)	-6	100	88	-74	i	-0.7	1

# (list continues)
structure	PKD1 inh	RGS16-Gao HTS	INS promoter inh cell count	INS promoter inh	HSV replic up	GALR2 ag	HSV replic up primary fold
COCCNC(=S)N1CCC(Cc2ccccc2)CC1	-9	111	nt	nt	i	nt	1.1
COC(=O)c1[nH]c2cc(OC)ccc2c1NC(=O)CN1CCC(C(N)=O)(N2CCCCC2)CC1	-7	99	165	-14	i	-1.8	0.87
CC(=O)NNC(=S)Nc1cccc(F)c1	nt	100	nt	nt	i	nt	0.8
O=C(NCc1cn2ccsc2n1)c1cccs1	-10	85	nt	nt	i	-4.0	0.93
CCOc1ccc(S(=O)(=O)Nc2ccc(O)c(Sc3ncn[nH]3)c2)cc1	4	nt	71	45	nt	-3.2	nt
CCCCc1ccc(NC(=O)C(C)CC)cc1 (stereo not drawn)	-5	101	122	11	i	nt	0.91
CC1(C)CC(=O)C(=Cc2cn(CCC#N)nc2-c2ccc(F)cc2)C(=O)C1	-2	104	53	-28	i	-2.1	0.98
CCCCOc1ccc(C(=O)N2CCC(C)CC2)cc1	0	103	127	64	i	-2.4	0.81
CCC(=O)N1CCn2c1nc1ccccc12	-5	102	83	-66	i	-2.2	1
NC(=S)N/N=C/c1ccc2ccccc2c1	-8	106	nt	nt	i	-1.7	0.91
O=C(CSc1ccc2nnc(-c3cccs3)n2n1)N1CCCC1	3	95	121	11	i	nt	0.88
Fc1ccc(-c2csc(N3CCC(c4ccccc4)C3)n2)cc1 (stereo not drawn)	1	89	nt	nt	i	-2.6	0.93
CCN1CCN(CC(O)COc2cccc(OC)c2)CC1 (stereo not drawn)	3	103	99	-52	i	-1.1	0.91
CC1(C)C(c2cccs2)=[N+]([O-])C2(CCCCC2=O)N1O (stereo not drawn)	-5	106	132	15	i	nt	0.91
Cc1cc(C)c2c(N)c(C(=O)N/N=C/c3cccnc3)sc2n1	nt	104	nt	nt	i	nt	0.91

# 3 entries from above, sorted by the number in HSV replic up primary fold, high to low.
mol	HSV replic up primary fold
COCCNC(=S)N1CCC(Cc2ccccc2)CC1	1.1
N#CC1=C(S)N(c2ccccc2)C(c2cccs2)NC1=O (stereo not drawn)	1
CCCCc1ccc(NC(=O)C(C)CC)cc1 (stereo not drawn)	0.91

# More entries:
structure	PKD1 inh	RGS16-Gao HTS	INS promoter inh cell count	INS promoter inh	HSV replic up	GALR2 ag	HSV replic up primary fold
COc1ccc(CN(CC2CCC(C(=O)O)CC2)C(=S)Nc2ccccc2C)cc1 (stereo not drawn)	-4	103	nt	nt	i	nt	1
CCO[C@@H]1OC(C(=O)N2CCOCC2)=C[C@H](c2ccc(C(F)(F)F)cc2)[C@H]1CCCO	-2	103	nt	nt	i	nt	0.89
Cc1oc(-c2cccs2)nc1CN1CCC(C(=O)N2CCCC2)CC1	2	96	89	-17	i	nt	1.1
COc1cccc(CC(=O)N2CCCC(CCC(=O)N3CCN(c4ccccn4)CC3)C2)c1 (stereo not drawn)	-2	108	90	-19	i	nt	0.99
COc1cc(/C=C2\SC(=O)N(c3ccccc3Cl)C2=O)cc([N+](=O)[O-])c1O	-2	100	nt	nt	i	nt	0.91
CC(=O)c1ccc(C)cc1OC(=O)c1cccc(F)c1	-6	106	68	33	i	nt	0.94
N#Cc1c(-n2cccc2)cccc1-n1cccc1	11	105	127	0	i	-2.6	1.2
Cc1sc2nc(CN3CCOCC3)nc(NCCc3ccccc3)c2c1C	1	101	113	-65	i	-3.9	0.82
Cc1ccc(CN2CCN(CCCn3cccn3)CC2CCO)cc1 (stereo not drawn)	0	98	nt	nt	i	nt	0.95
Cc1nn(-c2ccc(C(=O)Nc3nnc(C4CC4)s3)cc2)c(C)c1Cl	-13	101	nt	nt	i	-0.6	0.99
CN1C(=O)N(c2nnc(C(C)(C)C)s2)C(=O)C1c1ccccc1 (stereo not drawn)	nt	92	nt	nt	i	nt	0.95
COc1ccc(C(=O)OCC(=O)NCC2CCCCC2)cc1S(=O)(=O)N1CCCc2ccccc21	2	100	101	35	i	-2.4	0.98
CSc1nsc(SCC(=O)N2CCCCC2)n1	1	105	119	7	i	nt	0.8
O=C(CSc1ccccc1)NCc1ccco1	-10	93	141	-128	i	-2.2	1
O=C(N/N=C/c1ccc[nH]1)c1sc2ccccc2c1Cl	-2	91	nt	nt	i	0.4	1

# Filtered by structure, the compounds so far containing a CF3 group (two)
structure	PKD1 inh	RGS16-Gao HTS	INS promoter inh cell count	INS promoter inh	HSV replic up	GALR2 ag	HSV replic up primary fold
FC(F)(F)c1ccc2c(c1)N1CCCC1CN2 (stereo not drawn)	0	103	nt	nt	nt	nt	nt
CCO[C@@H]1OC(C(=O)N2CCOCC2)=C[C@H](c2ccc(C(F)(F)F)cc2)[C@H]1CCCO	-2	103	nt	nt	i	nt	0.89

# The list continues:
structure	PKD1 inh	RGS16-Gao HTS	INS promoter inh cell count	INS promoter inh	HSV replic up	GALR2 ag	HSV replic up primary fold
Cc1nc2ccc(NC(=O)Cc3cccs3)cc2s1	-5	103	109	6	i	-0.4	0.98
CNC(=O)COc1ccc(S(=O)(=O)Nc2ccccc2)cc1	-4	96	nt	nt	i	nt	0.97
Cc1ccc2c(c1)nc(NCCCO)n2C	-2	104	152	-12	i	-1.8	1
CCCn1c(SCC(=O)NC23CC4CC(CC(C4)C2)C3)n[nH]c1=O	-6	107	100	12	i	-1.0	0.94
COc1ccc(-n2c(Cc3cccn3C)nnc2SCC(=O)N2CCCC2)cc1	-9	95	nt	nt	i	-1.0	0.87
CCOC(=O)C1=C(C(F)(F)F)Nc2ncnn2C1c1cc(OC)c(OC)cc1OC (stereo not drawn)	-6	107	144	47	i	3.1	1
O=C(Cc1ccccc1[N+](=O)[O-])NCCC1=CCCCC1	-5	101	nt	nt	i	nt	1.1
O=C(NC(=S)Nc1ccccc1N1CCOCC1)c1cccs1	-3	109	126	3	i	-1.1	0.93
CCCc1cc(C(=O)OC)c(NC(=O)CCC(=O)O)s1	-3	104	75	14	i	nt	1.1
CCOC(=O)C(CC)/C(C)=N\NC(=O)CCC(=O)Nc1ccc(Cl)cc1Cl (stereo not drawn)	7	91	74	50	i	nt	0.86
CC(=O)c1nnn(-c2ccc([N+](=O)[O-])cc2C)c1C	-7	98	91	-46	i	nt	0.95
O=C(NNC(=O)c1ccccc1Cl)c1ccncc1	-1	105	106	27	i	-0.4	1.1
Cc1ccc(C)c(S(=O)(=O)ON2C(=O)c3ccccc3C2=O)c1	1	141	17	44	i	-1.2	1.1
CC1=CC(C)C2COC(c3ccc[n+](C)c3)C1C2C (stereo not drawn)	0	104	124	55	i	-0.1	0.9
CCn1c(CNc2nc3ccccc3n2C(C)C)nc2ccccc21	0	102	53	-42	i	-0.1	0.98

# Going on with the list.
structure	PKD1 inh	RGS16-Gao HTS	INS promoter inh cell count	INS promoter inh	HSV replic up	GALR2 ag	HSV replic up primary fold
Cc1cc(C)c2c(CC(=O)O)c(C)[nH]c2c1	-7	109	41	-25	i	nt	0.95
COc1ccc(CCNC2=CC(=O)CC(C)(C)C2)cc1	nt	104	nt	nt	i	nt	0.96
N#Cc1ccccc1S(=O)(=O)N1CCN(CC(O)c2ccccc2)CC1 (stereo not drawn)	3	100	113	10	i	nt	1
CCn1c(C(C)NC(=O)c2cccs2)nc2ccccc21 (stereo not drawn)	-9	100	nt	nt	i	-0.5	0.77
Cc1cc2c(c(=O)o1)C1(C(=O)N(CC(=O)O)c3ccccc31)C(C#N)=C(N)O2 (stereo not drawn)	-10	108	83	69	i	-1.6	1
CCOc1ccc(C(CC(=O)O)NC(=O)c2cccs2)cc1OC (stereo not drawn)	6	103	nt	nt	i	nt	0.92
Cc1ccc(N(CC(=O)O)S(=O)(=O)c2cccc3nonc23)cc1	-6	96	nt	nt	i	0.2	1
COc1ccccc1OCC(=O)Nc1cccc(-c2nnc(-c3ccco3)o2)c1	6	97	125	-29	i	nt	1.1
O=C(NC1CCC(O)CC1)c1ccc(-c2ccc([N+](=O)[O-])cc2)o1 (stereo not drawn)	nt	106	nt	nt	i	nt	0.89
CCOC(=O)c1sc(=S)n(-c2ccc(F)c(F)c2)c1N	10	83	nt	nt	i	-0.8	1.1
O=C(Nc1cccc(F)c1)c1cccc(S(=O)(=O)N2CCOCC2)c1	-2	107	145	-5	i	-2.4	0.89
COc1ccc(C)cc1NC(=O)C(CCS(C)(=O)=O)NC(C)=O (stereo not drawn)	-2	106	nt	nt	i	-0.7	0.91
